HSV augment: increases HSV replication in cells; HSV replication augmentation in cells, fold increase; maximum fold increase; 220,000 compounds, 0.005% hits; AID 1956;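 active = peak rise of 1.5-fold or more in the series; tested in PC3 cells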;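 note: first round at 10 µM; read as green reporter fluorescence; hits show the peak of a series up to 25 µM; 1 = signal of infected wells without compound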
Insulin prom inh: TRM-6 insulin promoter activity inhibition | 130,000 compounds, 0.9% hits | inhibition, % at 2 µM | TRM-6 cells (human fetal islet line), insulin promoter-eGFP reporter, imaging; reporter expression induced with tamoxifen | AID 1273;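 active = inhibition above the mean plus 3 SD, with well images judged a real hit on visual review, cut at about 60% in these data, passing the limit was not always enough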
GALR2 ag: agonists of human galanin receptor 2 (GALR2); activation, %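 (tested at 5 µM)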; O43603; AID 803; GALR2-expressing cells, agonist activation read-out; 140,000 compounds, 0.48% hits;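 active = above mean plus 3 SD of all compounds, about 5% in these data, not always enough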;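 note: 0% = vehicle buffer wells and 100% = reference agonist at full effect; tested in CHO reporter cells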
RGS16-Gao: RGS16-Galphao interaction regulator (human); O15492+P09471; bead-based flow cytometry RGS16-Galphao binding, fluorescence; actives lie on both sides; binding response (% of control), % at 10 µM; 220,000 compounds, 0.38% hits; AID 1441;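 active = below 25% or above 175%, edge rows of some plates excepted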;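 note: Galphao activated by GDP with aluminum fluoride before binding; 100% = wells without compound and 0% = beads without RGS; some results beyond the cut were filed as inactive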
PKD1 kinase inh: blocks activity of human protein kinase D1; PKD1 kinase fluorescence polarization assay; Q15139; 200,000 compounds, 0.056% hits; inhibition, %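 (about 10 µM by stock and volumes)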;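 active = inhibition of 50% or more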;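 note: controls were vehicle for no effect and a reference inhibitor for full effect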
Target sequence (Q15139 whole entry, looked up): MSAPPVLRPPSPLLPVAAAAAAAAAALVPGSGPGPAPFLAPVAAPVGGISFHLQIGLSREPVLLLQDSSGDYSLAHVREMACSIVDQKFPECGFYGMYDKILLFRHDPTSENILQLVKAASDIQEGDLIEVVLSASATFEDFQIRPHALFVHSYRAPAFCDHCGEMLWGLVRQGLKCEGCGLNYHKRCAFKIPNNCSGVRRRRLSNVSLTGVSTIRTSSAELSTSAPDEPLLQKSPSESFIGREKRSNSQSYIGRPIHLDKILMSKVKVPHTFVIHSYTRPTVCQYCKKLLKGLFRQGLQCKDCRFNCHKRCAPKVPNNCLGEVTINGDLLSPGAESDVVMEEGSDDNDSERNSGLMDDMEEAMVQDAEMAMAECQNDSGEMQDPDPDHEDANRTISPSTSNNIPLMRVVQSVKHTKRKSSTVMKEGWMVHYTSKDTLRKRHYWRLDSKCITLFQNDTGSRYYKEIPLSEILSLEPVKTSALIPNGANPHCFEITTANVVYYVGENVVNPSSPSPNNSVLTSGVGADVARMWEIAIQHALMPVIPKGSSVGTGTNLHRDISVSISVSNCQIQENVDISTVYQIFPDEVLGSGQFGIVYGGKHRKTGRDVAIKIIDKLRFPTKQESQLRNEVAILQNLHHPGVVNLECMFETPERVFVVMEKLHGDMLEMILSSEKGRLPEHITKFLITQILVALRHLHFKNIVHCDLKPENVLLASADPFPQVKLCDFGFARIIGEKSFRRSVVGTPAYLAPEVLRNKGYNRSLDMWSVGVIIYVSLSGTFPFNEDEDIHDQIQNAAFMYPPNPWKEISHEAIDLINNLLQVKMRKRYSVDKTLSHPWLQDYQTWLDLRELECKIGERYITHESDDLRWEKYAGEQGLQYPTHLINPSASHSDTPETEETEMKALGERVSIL
Insulin prom inh cell count: second read-out of Insulin prom inh, no call of its own (marks repeat the call); normalized cell count, %; measured here: cell count, toxicity; reference of the scale not given here;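 cells exposed to compound for 48 h; stained nuclei by imaging scaled within each plate; lower means fewer cells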
HSV augment primary fold: second read-out of HSV augment, no call of its own (marks repeat the call); fold increase; compound at 10 µM; measured here: primary screen fold increase 10 uM; tested in PC3 cells;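 GFP signal in the first replicate; 1 = infected wells without compound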
An asterisk follows results filed as active; i = inactive; / = no result given.

SMILES	HSV augment	HSV augment primary fold	Insulin prom inh	Insulin prom inh cell count	GALR2 ag	RGS16-Gao	PKD1 kinase inh
COc1ccc(S(=O)(=O)NCc2ccc(F)cc2)cc1OC	i	1.08	-21.1	78.2	/	101.7	-2.2
COC(=O)Nc1c(C(=O)OC)cc(OC)c(OC)c1OC	i	1.06	-2.9	130.2	-1.6	111.7	-3.9
Cc1cc(N=Nc2c(O)c3ccccc3[nH]c2=O)ccc1N=Nc1ccc(C(=O)N(C)C)cc1	i	0.95	/	/	/	98.8	/
COc1ccc(C(=O)COC(=O)CN2C(=O)NC(C)(C)C2=O)cc1OC	i	0.72	/	/	-2.9	209.7	8.2
Cc1ccc(CNC(=O)c2ccc3c(c2)NC(=O)C(N2CCOCC2)S3)cc1 (centres undefined)	i	1.01	-100.0	30.9	/	122.1	-0.9
CCOCCCNC(=S)N1CCCN(c2nc3c(C)c(C)ccc3cc2C#N)CC1	i	0.86	-52.4	65.3	/	97.4	-0.6
COc1ccc(N/C=C/C(=O)C(C)(C)C)cc1	i	1.17	/	/	/	96.9	5.5
COC(=O)CSc1nc(NC(C)C)nc(N2CCOCC2)n1	i	1.1	31.2	91.5	-2.3	99.7	-12.0
Cc1cccc(NC(=O)CN2C(=O)c3ccccc3C2=O)c1C	i	1.06	/	/	/	127.3	-5.2
CCNc1nc(SCC(=O)OC)nc(N(C)C)n1	i	0.86	28.6	111.3	/	112.1	-4.8
CC(C)N(C(=O)CSc1nnc(-c2cc3ccccc3cc2O)n1Cc1ccco1)C(C)C	i	1.06	21.1	131.2	3.2	41.3	3.5
O=C1c2ccccc2N2C(=O)c3ccccc3C2N1Cc1ccco1 (centres undefined)	i	0.99	/	/	-0.9	97.3	2.1
O=C(/C=C\c1cn(-c2ccccc2)nc1-c1ccc2c(c1)OCCO2)N1CCOCC1	i	0.94	/	/	/	100.8	-6.5
COC(=O)c1ccc(Nc2cc(C)nc3nc(C)nn23)cc1	/	/	-40.0	72.6	-0.1	57.3	-8.1
O=C1CC(c2ccccc2Br)c2cc3c(cc2N1)CCC3 (centres undefined)	i	0.65	/	/	/	98.9	-4.4
Cc1cccc(N=Nc2cnc(N)s2)c1	i	0.94	/	/	/	98.3	/
Cc1ccc(NC(=O)CCC(=O)N/N=C/c2cccs2)cc1	i	1.03	20.0	120.8	/	107.2	0.2
CC(=O)c1cc(-c2ccccc2)n(CC(=O)N2CCC(N3CCCCC3)CC2)c1C	i	0.82	28.6	103.2	-0.1	104.8	-3.7
O=C(c1cc(C2CC2)on1)N1CCN(C(c2ccccc2)c2ccccc2)CC1	i	0.92	/	/	0.6	89.1	0.9
COc1ccc(OC)c2sc(NC(=O)c3ccc(Cl)s3)nc12	i	0.92	/	/	-1.5	114.0	-0.3
COc1ccccc1NC(=S)N(CCCN1CCOCC1)Cc1cccs1	i	0.92	20.0	68.4	/	98.1	-2.2
Cc1cccc(-n2c(N)cc(=O)[nH]c2=S)c1C	i	0.84	-21.6	134.4	-2.2	97.6	2.6
COc1ccc(C(=O)Nc2ccc3nc(N4CCCCC4)cc(C)c3c2)cc1OC	i	0.69	-12.5	153.4	1.9	110.0	-2.1
N#Cc1ccsc1NC(=O)CN1CCN(c2ccccc2)CC1	i	0.96	42.9	78.1	-1.1	100.8	-2.0
O=C(CS(=O)(=O)c1ccc(C(F)(F)F)cn1)NNC(=O)c1ccccc1	i	0.95	/	/	/	96.8	/

Single entries from the results shown.
Under HSV augment primary fold, O=C(CS(=O)(=O)c1ccc(C(F)(F)F)cn1)NNC(=O)c1ccccc1 is listed with 0.95
Under Insulin prom inh cell count, Cc1cccc(-n2c(N)cc(=O)[nH]c2=S)c1C is listed with 134.4
Under PKD1 kinase inh, Cc1ccc(CNC(=O)c2ccc3c(c2)NC(=O)C(N2CCOCC2)S3)cc1 (centres undefined) is listed with -0.9
Under Insulin prom inh, Cc1ccc(NC(=O)CCC(=O)N/N=C/c2cccs2)cc1 is listed with 20.0

(cont.)
SMILES	HSV augment	HSV augment primary fold	Insulin prom inh	Insulin prom inh cell count	GALR2 ag	RGS16-Gao	PKD1 kinase inh
Cn1c(SCC(=O)N2CCCCC2)nnc1-c1ccc(S(=O)(=O)N2CCOCC2)cc1	i	0.87	-28.6	123.7	-0.3	100.1	-15.7
Cc1cc(-c2ccccc2)nc(N(C)NC(=O)c2cccc(C(F)(F)F)c2)c1S(C)(=O)=O	i	0.91	-61.3	36.6	-0.1	72.0	-5.6
O=C(CSc1nc(-c2ccccc2)cc(=O)[nH]1)N1CCOCC1	i	1.02	-14.3	125.4	0.0	94.4	-5.1
CC(=O)c1ccc(NC(=O)c2ccc(NC(=O)CCS(=O)(=O)c3cccs3)cc2)cc1	i	0.82	/	/	/	106.2	10.2
CNc1nc(OC)nc(N2CCOCC2)n1	i	0.967	-110.0	58.1	0.3	102.3	5.3
CCn1nccc1C(=O)Nc1cc(Cl)ccc1Cl	i	0.88	20.9	86.9	-0.1	101.7	2.5
O=C(Nc1nc(-c2ccccc2)cs1)c1ccc(S(=O)(=O)N2CCc3ccccc32)cc1	i	0.98	12.2	104.0	-1.1	161.7	1.6
Cc1[nH]c2ccccc2c1N=Nc1ccc(F)cc1	i	0.86	6.7	140.8	/	103.1	-2.1
Cc1ccc(S(=O)(=O)CCC(=O)OCC(=O)Nc2cc(C)on2)cc1	i	1.05	/	/	-1.9	99.3	8.4
CCC(C)c1ccc(NC(=S)Nc2ccc(OC)cc2)cc1 (centres undefined)	i	1.02	/	/	0.7	107.1	-2.6
CCOC(=O)c1c(NC(=O)CSc2nnc(C)s2)sc2c1CCCCC2	i	0.997	17.9	93.3	-1.0	98.8	-5.7
Cc1cc(NCCCN)nc(-c2ccccc2O)n1	i	0.94	6.1	94.9	-1.7	102.0	113.7*
COc1cccc(C(=O)Nc2c3c(nn2-c2ccccc2C)CS(=O)C3)c1OC (centres undefined)	/	/	/	/	-2.3	90.9	-16.3
CC(C)(C)OC(=O)N1Cc2ccccc2C[C@H]1C(=O)O	i	0.99	/	/	-1.9	90.8	-2.9
NC1=NC(=O)CC(C(=O)NCCc2ccccc2)S1 (centres undefined)	i	1.03	18.9	88.0	-2.3	-73.1*	0.5
COC(=O)CC1C(=O)NCCN1C(=O)NC1CCCCC1 (centres undefined)	i	0.97	15.2	90.9	-2.9	105.5	-1.7
Cc1cccc(CN2C(=O)c3ccccc3Sc3ccc(C(=O)NCCN4CCOCC4)cc32)c1	i	0.91	-33.3	179.6	/	105.6	-9.6
O=C(CCCn1c(=S)[nH]c2ccccc2c1=O)NC1CCCCC1	i	0.84	5.6	52.3	-1.6	100.8	1.2
COc1ccc(/C=N/Nc2nnc(Cc3ccccc3)c(=O)[nH]2)cc1	i	1.16	/	/	/	99.2	/
CC1CCCCN1C(=O)CSc1nc2ccsc2c(=O)n1Cc1ccccn1 (centres undefined)	i	0.94	-35.7	84.8	-1.6	101.9	4.5
Nc1nn(-c2ccccc2)c(N)c1N=Nc1ccccc1F	i	0.6	-6.7	101.1	0.4	107.4	-10.2
O=C(Nc1ccc(Br)c2cccnc12)c1ccc(Cn2cc([N+](=O)[O-])cn2)o1	i	0.68	/	/	-1.5	94.8	13.6
CC(=O)C1=C(O)C(=O)N(Cc2cccnc2)C1c1ccc(O)cc1 (centres undefined)	i	1.03	-5.6	147.8	/	101.8	5.9
COc1cccc(OCC(=O)NNC(=O)CCc2ccccc2)c1	i	1.06	53.9	93.0	/	111.0	2.7
COc1ccc(/C=C/C=C2\N=C(SC)SC2=O)cc1	i	1.02	25.0	158.3	0.2	102.8	-8.9
Other records
SMILES	HSV augment	HSV augment primary fold	Insulin prom inh	Insulin prom inh cell count	GALR2 ag	RGS16-Gao	PKD1 kinase inh
C/C(Nc1ccc(C)cc1)=C(/C#N)C(N)=O	i	1.01	/	/	-0.4	102.0	10.3
Cc1ccc(C)c(N2CCN(C(=O)c3ccc(CSc4nc5ccncc5[nH]4)cc3)CC2)c1	i	0.81	-70.7	106.1	-0.7	109.0	3.7
Cc1cc(O)c2c(-c3ccccc3)cc(=O)oc2c1	i	1.06	65.5	128.8	-0.6	153.1	-11.4
CC[C@H](C)[C@@H](C(=O)N1CCNCC1)n1cc([C@@H](N)CO)nn1	i	1.21	/	/	/	97.0	0.2
CCCc1cc2c(cc1NS(=O)(=O)c1ccc(CCNC(C)=O)cc1)OCO2	i	0.83	/	/	-0.7	86.7	10.5
CN(N)C(=S)Nc1ccc(Cl)cc1	i	1.05	33.3	22.8	/	105.3	-3.5
Cc1cc(CN(C)C(=O)CC2C(=O)NCCN2Cc2ccc(F)c(F)c2)on1 (centres undefined)	i	0.8	/	/	/	88.0	3.2
Cc1ccc(-n2c(SCC(N)=O)nnc2-c2ccc(S(=O)(=O)N3CCCCC3)cc2)c(C)c1	i	0.9	-46.4	93.0	2.0	109.9	2.3
O=C(CN1CCC(NC(=O)c2ccc(F)cc2)CC1)NCc1ccccc1F	i	1.04	-250.0	130.7	-0.9	110.2	-1.2
O=C(NCCOc1ccccc1-c1ccccc1)c1ccco1	i	0.98	/	/	/	100.1	-4.5
C=CCNC(=S)NNC(=O)CC12CC3CC(CC(C3)C1)C2	i	0.93	/	/	/	109.6	/
Cc1cc(C)c(C(=O)CC2(O)C(=O)Nc3ccccc32)cc1C (centres undefined)	i	0.98	-32.1	98.1	-0.1	99.5	1.3
O=C(CSc1ccc(Cl)cc1)Nc1ccccc1N1CCN(C(=O)c2ccccc2)CC1	i	0.91	-9.1	110.0	0.1	101.1	8.6
CCn1ccnc1CN(C)Cc1cn[nH]c1-c1ccc(OC)c(F)c1	i	1.03	/	/	/	96.6	2.5
CCn1c(SCC(=O)OCc2ccccc2)nc2c1c(=O)n(C)c(=O)n2C	i	0.94	-31.2	114.7	-1.3	96.4	9.1
Cc1cc(N2CCC(C)CC2)nc(SCC(=O)c2ccccc2)n1	i	1.23	37.9	73.0	-0.2	100.8	4.9
COC(=O)c1c(NC(=O)CN2CCC3(O)CCCCC3C2c2ccc(F)cc2)sc(C)c1C (centres undefined)	i	0.96	-14.3	128.9	-0.2	110.7	-1.2
CC(C)(C)C(=O)Nc1ccc(N=Nc2ccccc2)cc1	i	0.94	-7.1	134.5	/	105.6	5.8
O=C(NO)c1ccccc1O	i	0.62	42.9	78.8	-1.8	103.9	-0.5
O=C(NC(=S)Nc1ccc(NC(=O)c2cccs2)cc1)c1ccc([N+](=O)[O-])cc1	i	0.89	/	/	13.8*	99.0	-3.1
O=C(O)C1CCN(C(=O)CCc2ccccc2)CC1	i	0.92	/	/	/	106.0	/
CCNc1nc(NCC)nc(N/N=C/c2ccc(Br)cc2)n1	i	0.95	/	/	/	102.7	-5.8
CCCCN(C)CCCNC(=O)/C=C1\Sc2ccccc2NC1=O	/	/	-30.8	71.5	/	103.4	-7.3
O=C(c1ccc(S(=O)(=O)N2CCOCC2)cc1)N1CCN=C1SCc1cccnc1	i	0.97	/	/	-0.2	111.3	-3.9
Cc1cc(C)c2c(=O)n(CC(=O)Nc3ccc(Br)c(C)c3)sc2n1	i	0.87	/	/	/	64.1	/
Later entries
SMILES	HSV augment	HSV augment primary fold	Insulin prom inh	Insulin prom inh cell count	GALR2 ag	RGS16-Gao	PKD1 kinase inh
O=C(OCC(=O)c1c[nH]c2ccccc12)c1cccc(S(=O)(=O)N2CCCCCC2)c1	i	1	-59.3	98.0	0.5	99.9	-0.5
COc1ccccc1CNC(=O)CCS(=O)(=O)c1cccs1	i	1.01	/	/	-0.3	109.2	3.5
O=C(Nc1ccccc1-c1nnn(CC(=O)N2CCCc3ccccc32)n1)c1cccc(Cl)c1	i	1.12	46.1	153.2	-2.3	/	-5.0
O=C(CN1CCSCC1)N/N=C/c1ccc(F)c(F)c1	i	0.72	-32.3	96.3	-1.1	103.8	3.2
Cc1c(O)c(CN2CCCC2)cc2c1oc(=O)c1ccccc12	i	0.87	/	/	0.3	101.0	5.5
Cc1cc(C)cc(NC(=O)C(=S)NCc2ccccc2)c1	i	1.02	/	/	/	89.7	6.0
Cc1ccc(C(=O)N2CCN(c3ccc(NC(=O)c4cccnc4)cc3)CC2)cc1	i	0.967	/	/	0.0	74.7	-15.4
O=C(O)CCCN1C(=O)C2C3CCC(O3)C2C1=O (centres undefined)	i	0.95	-10.3	76.2	-0.9	124.7	2.5
CCOc1cccc2c1OC1(CCCCC1)N1N=C(c3cccnc3)CC21 (centres undefined)	i	0.92	-20.0	68.6	-0.4	100.4	11.5

Ordered by number of heavy atoms (lowest first): some entries from above.
SMILES	HSV augment	HSV augment primary fold	Insulin prom inh	Insulin prom inh cell count	GALR2 ag	RGS16-Gao	PKD1 kinase inh
O=C(O)CCCN1C(=O)C2C3CCC(O3)C2C1=O (centres undefined)	i	0.95	-10.3	76.2	-0.9	124.7	2.5
Cc1c(O)c(CN2CCCC2)cc2c1oc(=O)c1ccccc12	i	0.87	/	/	0.3	101.0	5.5
CCOc1cccc2c1OC1(CCCCC1)N1N=C(c3cccnc3)CC21 (centres undefined)	i	0.92	-20.0	68.6	-0.4	100.4	11.5

Source: PubChem BioAssay

No enrichment for hits. About 1.3% of those tested had a hit in this group.
